VACV Venus inh – qHTS for Stage-Specific Inhibitors of Vaccinia Orthopoxvirus: Venus Reporter Primary qHTS | Vaccinia virus Venus reporter expression, fluorescence | Potency, µM (series often up to 36.5 µM), without a hit: at the top dose activity change, negative = inhibition, actives largely listed as inhibitors | actives 0.46% (n = 330,000) | AID 720580, 2013; active means well fitted inhibition curve with a large enough effect; inconclusive means small, poorly fitted or top-dose-only effect; inactive means no such curve, though single readings can be large or run the other way; tested in A549 cells; further: nearly all actives have a fitted effect of over 30% in size; inactives centre near -10
Vaccinia mCherry – qHTS for Stage-Specific Inhibitors of Vaccinia Orthopoxvirus: mCherry Reporter Primary qHTS; Vaccinia virus mCherry reporter infection, fluorescence; about a quarter of the inactives have no number; Potency, µM (highest dose often 36.5 µM), for the others: at the highest dose activity change, negative = inhibition, usual class: inhibitors; actives 0.63% (n = 310,000); active = well fitted inhibition curve with a large enough effect; inconclusive = small, poorly fitted or top-dose-only effect; inactive = no such curve, though single readings can be large or run the other way; tested in A549 cells; further: nearly all actives have a fitted effect of over 35% in size; inactives centre near -10
Numbers without * were called inactive; i = inactive; ? = inconclusive; · = no result given; [ ] = dose if it differs, or a comment. On the % scale 0 is the no-effect control and ±100 the full control effect; potency means the concentration at half of the fitted maximal effect.

nr	smiles	Vaccinia mCherry	VACV Venus inh
1	CC1=C(/C=C/C(C)=C/C=C/C(C)=C/C=C/C=C(C)/C=C/C=C(C)/C=C/C2=C(C)CCCC2(C)C)C(C)(C)CCC1	i	0.0%
2	COc1cccc2c(=O)n(CC(=O)NC3CCCCC3)ccc12	-5.8%	-10.9%
3	Cc1ccc(C(=O)Nc2ccc3c(c2)N(C)C(=O)c2ccccc2S3)cc1	?	?
4	CCS(=O)(=O)n1c(Cc2cccs2)nc2ccccc21	2.8%	-19.3%
5	CCNc1nc(NC(C)(C)C)nc(N(CC)n2cnnc2)n1	?	-14.2%
6	CNC[C@H]1Oc2c(NS(=O)(=O)c3ccc(OC)cc3)cccc2C(=O)N([C@H](C)CO)C[C@@H]1C	i	-12.3%
7	COc1c(C)cccc1C(=O)Nc1ccc(Cl)c(-c2nc3cc(C)ccc3o2)c1	i	-11.6%
8	Cc1ccc(CNC(=O)C2CCN(S(=O)(=O)c3ccc4c(c3)OCCCO4)CC2)cc1	i	-20.4%
9	COC(=O)c1ccc(CN(c2ccccc2OC)S(=O)(=O)c2cccs2)o1	·	-18.0%
10	COc1ccc(-c2csc(N3C(=O)C4C5c6ccccc6C(c6ccccc65)C4C3=O)n2)cc1 (configuration not stated)	i	-8.7%
11	O=C(NCCCN1CCN(Cc2ccccc2)CC1)C1CCN(c2nnc(-n3cccc3)s2)CC1	·	-24.9%
12	O=C(COC(=O)c1c[nH]c(=O)[nH]c1=O)NCc1ccccc1	·	-12.3%
13	Cc1cc(C)c2[nH]c(=O)c(CN(Cc3cccs3)C(=S)NCC3CCCO3)cc2c1 (configuration not stated)	1.7%	-3.3%
14	Cc1cc(S(=O)(=O)NC(C)C)ccc1OCC(=O)Nc1ccc2c(c1)OCCO2	-2.1%	-9.5%
15	Cc1ncc([N+](=O)[O-])n1S(=O)(=O)c1cc(Cl)ccc1Cl	-9.6%	-9.3%
16	CCOc1ccc(S(=O)(=O)c2ccc(C)cc2)c2c1no[n+]2[O-]	?	-26.5%
17	CCOc1ccc(CCNC(=O)c2cccnc2N2CCCC2)cc1OCC	-22.3%[1.46 µM]	-14.9%
18	O=S(=O)(Nc1ccc(N2CCCCC2)cc1)c1ccccc1	-13.8%	-16.2%
19	COc1cccc(NC(=O)c2cccc(C(=O)Nc3cccc(OC)c3)c2)c1	i	-9.0%
20	O=C(Nc1ccc(Br)cc1)c1cc(-c2cccs2)on1	?	-11.7%
21	COc1ccc(S(=O)(=O)Nc2ccc3c(c2)C(=O)N([C@H](C)CO)C[C@H](C)[C@@H](CN(C)C(=O)Nc2ccc4c(c2)OCO4)O3)cc1	-0.1%	-3.3%
22	Cc1[nH]c2ccccc2c1C(=O)CSc1ccccn1	i	-21.4%
23	CCCCC(=O)N/N=C/c1c(O)n(-c2ccccc2)c(=O)[nH]c1=O	-16.1%	-5.5%
24	O=C(COC(=O)Cc1ccccc1F)Nc1cccc(S(=O)(=O)NC2=NCCCCC2)c1	-12.1%	7.2%
25	Cc1cc(N(CCCl)CCCl)ccc1C=NNC(=O)c1cccnc1	-1.8%	-28.7%
26	Cc1ccc(-c2cc3c(n2-c2ccccc2F)CC(C)(C)CC3=O)cc1	-15.3%	-15.1%
27	CCC1CCCCN1C(=O)CSc1nnc(-c2cccs2)o1 (configuration not stated)	·	-6.4%
28	COc1ccc(CCNc2nc(-c3ccc(C)cc3)cc(C(F)F)n2)cc1OC	-21.2%	-9.5%
29	CCN(CC)C(=O)C1CCCN(c2ncnc3c2cnn3-c2ccc(Cl)cc2)C1 (configuration not stated)	i	?
30	COC(=O)c1ccc(NC(=O)C(=O)NCC(c2cccnc2)N2CCN(c3ccccc3)CC2)cc1 (configuration not stated)	-16.6%	-17.0%
31	c1cncc(-c2nn3c(Cn4cnc5ccccc54)nnc3s2)c1	-24.1%	-23.1%
32	COC(c1ccccc1)c1nnc(CCC(=O)NCc2cccc(-n3cccn3)c2)o1 (configuration not stated)	-6.0%	-13.3%
33	COc1cccc(NC(=O)CSc2nnnn2C2CCCC2)c1	i	-16.7%
34	C=C1N(c2cccc(Cl)c2)C(=O)OC1(C)C	i	-13.7%
35	Cc1cc(N2CCC(N(C)C3CCCC3)CC2)nc2cc(O)ccc12	?	-4.2%
36	COc1ccc2nc(C)cc(SCC(=O)OC(C)C)c2c1	-13.7%	-19.2%
37	CC(C)NS(=O)(=O)c1ccc2c3c(cccc13)CC2	-14.5%	-6.4%
38	NNC(=O)CNS(=O)(=O)c1ccc([N+](=O)[O-])cc1	-16.7%	-11.6%
39	O=C1CC(c2nc3ccccc3[nH]2)CN1c1cccc(C(F)(F)F)c1 (configuration not stated)	i	-22.2%
40	O=C(NNC(=O)c1ccc(-n2cncn2)c([N+](=O)[O-])c1)c1cccc(Cl)c1	-11.9%	-15.5%
41	CC(=O)Cn1cnc2sc(-c3ccccc3)cc2c1=O	?	-13.0%
42	Cc1cc(C)cc(-n2ncc3c2CCCC3NC(=O)c2csnn2)c1 (configuration not stated)	-12.0%	-8.0%
43	Cc1cccc2c1cnn2C(=O)CCC(=O)N1CCC(C)CC1	-2.7%	-1.3%
44	COc1ccc(NC(=O)CS(=O)c2cccc(Cl)c2)cc1 (configuration not stated)	-8.9%	-2.5%
45	Cc1ccc(S(=O)(=O)N(CC(=O)Nc2ccccc2)C(=O)N2CCN(C)CC2)cc1	-11.2%	-13.6%
46	Cc1cc2c3c([nH]c2cc1S(=O)(=O)NCc1ccc(CN2CCCCCC2)o1)CC(C)(C)CC3=O	i	-20.7%
47	O=C(Nc1ccc(F)cc1)C1CCN(c2nc3ccccc3n3cccc23)CC1	-26.6%	-29.9%
48	C[C@@]12CCC3[C@@](CCC4[C@@]3(C)CCC[C@@]4(C)C(=O)O)(CC1=O)C2 (some centres not stated)	i	-13.1%
49	O=C(c1cccnc1)C1CCCN(Cc2ccc3c(c2)CN(C(=O)c2ccc4[nH]ccc4c2)CCO3)C1 (configuration not stated)	-2.3%	10.0%
50	CCCN(C)C1CN(Cc2cn(Cc3ccc(OC)cc3)nn2)S(=O)(=O)C1 (configuration not stated)	-4.7%	-10.2%
51	CCOP(=O)(OCC)C(NC(=O)c1ccccc1)=C(Cl)Cl	-12.6%	-7.1%
52	CCOC(=O)N1CCC(N(CCN(C)C)C(=S)Nc2cc(C)ccc2C)CC1	-21.4%	-12.7%
53	O=C(NCC1CCCO1)C1CCN(S(=O)(=O)c2ccccc2)CC1 (configuration not stated)	-1.3%	-0.8%
54	CN(C)S(=O)(=O)c1ccc(Cl)c(C(=O)NCC2CCCCC2)c1	-3.3%	-2.8%
55	COc1ccc(/C=C2\CCc3ccccc3C2=O)cc1CN1CCOCC1	-17.5%	-22.3%
56	COc1ccccc1CNS(=O)(=O)c1ccc(Cl)s1	i	-9.3%
57	Cc1nc2ccccc2n1CC(=O)NN	i	0.0%
58	COc1ccccc1OCCCn1cc(C(C)=O)c2ccccc21	-4.7%	-10.3%
59	Cc1cccn2c(=O)nc(SCC(=O)N3CCOCC3)nc12	-10.7%	-6.7%
60	CCc1ccc(N(CC(=O)NCc2ccco2)C(=O)CCC(=O)Nc2ccccn2)cc1	-14.4%	-10.5%

Of the compounds above, these contain a nitro group on carbon.
nr	smiles	Vaccinia mCherry	VACV Venus inh
15	Cc1ncc([N+](=O)[O-])n1S(=O)(=O)c1cc(Cl)ccc1Cl	-9.6%	-9.3%
38	NNC(=O)CNS(=O)(=O)c1ccc([N+](=O)[O-])cc1	-16.7%	-11.6%
40	O=C(NNC(=O)c1ccc(-n2cncn2)c([N+](=O)[O-])c1)c1cccc(Cl)c1	-11.9%	-15.5%

The results go on.
nr	smiles	Vaccinia mCherry	VACV Venus inh
61	CC(C)(C)c1cc(C(F)(F)F)nc(SCCCNC(=O)c2ccco2)n1	·	-25.7%
62	Cc1ccc(CNc2oc(-c3ccc(COc4ccc(Cl)cc4)o3)nc2C#N)cc1	-7.6%	-5.8%
63	COCc1cn(CC(C)n2c(=O)c3ccccc3n2Cc2cc(C(C)C)no2)nn1 (configuration not stated)	i	5.7%
64	CC(=NNC(=S)Nc1cccc(C)c1)c1ccccn1	2µM*	?
65	COC(=O)c1cn(NC(=O)c2ccc(F)cc2)c(=O)c2ccccc12	-18.5%	-15.4%
66	CC1(C)CC(=O)C=C(NC2=CC3OC(c4ccccc4)OCC3OC2=O)C1 (configuration not stated)	?	?
67	Cc1c(C(=O)N2CCOCC2)c(S(=O)(=O)Nc2ccc(Br)cc2F)c(C)n1C	i	-1.7%
68	Cc1cccc(C(=O)N2CCC(=O)N(C(COCc3ccccc3)Cc3ccccc3)CC2)c1 (configuration not stated)	-23.3%	-19.2%
69	COc1ccc(/C=C/c2nnc(NC(=O)COc3ccc(C)cc3)s2)cc1	-10.1%	-10.4%
70	CN(C)c1ccc(/C=N/NC(=O)c2ccc(Cn3cc(Br)cn3)o2)cc1	-8.5%	-5.8%
71	COc1cccc(C(=O)NNC(=O)c2cccc3ccccc23)c1	-10.9%	-3.1%
72	Cc1ccc(S(=O)(=O)NCc2nc(-c3ccccc3)no2)cc1	-4.4%	-6.3%
73	Cc1[nH]c2ccccc2c1/C=N/NC(=O)c1cccc(Br)c1	-21.0%	-7.9%
74	CC1(C(=O)Nc2ccccc2Cc2ccccc2)CCN1CCc1ccccc1 (configuration not stated)	8.2%	2.3%
75	CCOC(=O)c1nnn(-c2ccc(OC)cc2)c1N	-2.8%	5.1%

Numbers 74 through 75 from above:
nr	smiles	Vaccinia mCherry	VACV Venus inh
74	CC1(C(=O)Nc2ccccc2Cc2ccccc2)CCN1CCc1ccccc1 (configuration not stated)	8.2%	2.3%
75	CCOC(=O)c1nnn(-c2ccc(OC)cc2)c1N	-2.8%	5.1%

Further records
nr	smiles	Vaccinia mCherry	VACV Venus inh
76	NCc1ccccc1	-17.5%	-15.6%
77	Cn1c(=O)c(C(=O)c2ccc(S(C)(=O)=O)c(Cl)c2Cl)c(O)c2ccccc21	-12.4%	-0.6%
78	CCn1c(=O)c2cc(C(=O)NCCc3cccc(C)c3)sc2c2ccccc21	-15.0%	-16.3%
79	O=C(COc1ccc2ccccc2c1)NNC(=O)c1cccs1	-13.2%	-5.7%
80	O=S1(=O)CCN(Cc2cccnc2)CC1	-5.0%	-7.2%
81	CCCn1c(=O)c2ccccc2n2c(SCCOc3ccc(OC)cc3)nnc12	-10.9%	-4.3%
82	COc1cc(S(=O)(=O)n2nc(C)cc2C)ccc1Cl	i	-10.6%
83	COc1ccc(Br)cc1C1NC(c2ccc3c(c2)OCO3)=CC(c2ccccc2O)N1 (configuration not stated)	24.5%	-19.1%
84	O=S(=O)(c1ccc(Cl)cc1)N1CCN(c2nc(Nc3cc(Cl)ccc3O)nc3ccccc23)CC1	-0.3%	-17.3%[20.9 µM]
85	CC(=O)Oc1ccc2occ(/C=N/c3cc(=O)[nH]c(=S)[nH]3)c(=O)c2c1	0.6%	-2.6%
86	Cc1ccc(CCNC(=O)c2nn(C)c3c2CSc2ccccc2-3)cc1	-6.0%	-8.4%
87	Cn1c(Cc2cccc3ccccc23)nnc1SCc1ccc([N+](=O)[O-])cc1	-13.4%	-7.8%
88	CCCc1nc2ccc(C)cn2c1Cc1ccccc1OC	i	-6.2%
89	CC1=NN(c2ccccc2)C(=O)C1=Cc1ccccc1	-20.7%	-15.7%
90	CC(C)(C)n1nnnc1C(c1cc2ccccc2o1)N1CCCC1 (configuration not stated)	-10.8%	-3.9%
91	CC(=O)Cc1nsc(Nc2cccc(C)c2)n1	3.8%	-8.5%
92	O=C(COC(=O)c1ccc(-c2ccccc2)cc1)Nc1ccccc1-c1ccccc1	i	-26.2%
93	Brc1ccc2nc(C3CCCCC3)c(Cc3ccccc3)n2c1	i	-5.6%
94	CCOC(=O)c1ccc(NC(=O)CCNS(=O)(=O)c2ccc3c(c2)oc(=O)n3C)cc1	-20.2%	-13.1%
95	CN(Cc1ccc(OC(F)F)cc1)C(=O)c1ccccc1Sc1ccccc1C#N	?	-25.5%
96	O=C(Nc1c2c(nc3ccccc13)CCCC2)c1ccccc1Cl	-1.3%	9.4%
97	C=CCn1c(SCC(=O)NC(=O)NCC(C)C)nnc1C1CCCCC1	-12.5%	-6.5%
98	O=C(O)c1cccc(N2C(=O)c3ccc4c5c(ccc(c35)C2=O)C(=O)N(c2cccc(C(=O)O)c2)C4=O)c1	i	-5.2%
99	COc1cccc(CNc2nc(NC(C)C)nc3ccsc23)c1	-5.9%	?
100	O=C(CN1C(=O)C2CCCCC2C1=O)Nc1nc(-c2ccc(F)cc2)cs1 (configuration not stated)	?	?
101	CCC[N+](CC#CCO)(CC#Cc1ccccc1)CCC	-5.4%	-3.7%
102	COc1cc(NC(=O)CSCc2ccccc2)c(C(=O)O)cc1OC	i	-13.6%
103	COc1ccccc1C(=O)Nc1ccccc1C(=O)OCc1cc(=O)n2ccsc2n1	-11.8%	-4.4%
104	COc1cc(C)c(C(C)C)cc1S(=O)(=O)n1ccnc1	-12.2%	4.1%
105	CCOC(=O)Nc1cc(C(=O)OC)cc(C(=O)OC)c1	-18.3%	-8.1%
106	Cc1cc(NC(=O)COC(=O)c2ccccc2S(=O)(=O)N(C)c2ccccc2)no1	-16.8%	25.2%
107	CCCCCOc1ccc2oc(=O)c3c(c2c1)CCCN3C(=O)CN1CCCC(C(=O)OCC)C1 (configuration not stated)	?	?
